Source: PubChem BioAssay (PCMD)
Biofilm kill mix: mixtures killing C. albicans biofilm. C. albicans biofilm persisters + clotrimazole, fluorescence viability; primary screen in compound mixtures of four per well. inhibition, % at 7.6 µM. 120,000 compounds, 0.02% hits;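 active = inhibition above 30.3% in the primary screen of four-compound pools, then above 30% when the compound was retested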;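 note: compounds exposed to preformed 24 h biofilms for 48 h; the number belongs to the whole pool; some results filed as inactive read as strong as hits; inactives centre near 12; 0% = biofilm with clotrimazole alone and 100% = kill control; retested singly at about 60 µM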
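System: C. albicans CAF4-2 wild-type biofilms; Medium: RPMI/MOPS medium, pH 7.0; Reagent: Clotrimazole, 50 µg/mL; Times: biofilm formation 24 h, compound exposure 48 h, 37 °C; Detection: 2-h Alamar Blue fluorescence, 535/590 nm excitation/emission; Evaluation: percent inhibition of biofilm viability.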
Active calls of the source: *. An excerpt (hit frequency here may not be typical).

Cc1ccc(C(=O)N2CCC3(CC2)Oc2ccc(F)cc2C(=O)C32CC(c3ccc(Cl)cc3)=NO2)s1 (centres undefined)
  Biofilm kill mix: 0
c1ccc(-c2cn(-c3ccccc3)c3ncnc(NCCCN4CCOCC4)c23)cc1
  Biofilm kill mix: 14
O=[N+]([O-])c1cc2c(c(CSc3ncccn3)c1)OCOC2
  Biofilm kill mix: 8
N#CC1=C(N)Oc2cc(N)ccc2C1c1ccsc1 (centres undefined)
  Biofilm kill mix: 14
c1ccc2c(c1)ncn2CCn1cnc2ccccc21
  Biofilm kill mix: 4
Cc1nn(-c2ccccc2)c(C)c1/C=N/n1c(-c2ccc(Cl)cc2)n[nH]c1=S
  Biofilm kill mix: 8
Cc1cc(C)cc(NC(=S)N2CCN(Cc3ccccc3)CC2)c1
  Biofilm kill mix: 11
CCOC(=O)c1nccnc1C(=O)Nc1cccc(C(F)(F)F)c1
  Biofilm kill mix: 10
COc1cc2c(cc1OC)C(/C=C/c1ccco1)=NCC2
  Biofilm kill mix: 16
O=C(Nc1cccc([N+](=O)[O-])c1)ONC1=NCCCCC1
  Biofilm kill mix: 16
CN(C)c1nnnn1-c1ccc(Oc2ncc(C(F)(F)F)cc2Cl)cc1
  Biofilm kill mix: 15
O=C(O)CSC1CC(=O)N(c2ccc(Cl)cc2)C1=O (centres undefined)
  Biofilm kill mix: 20
CC(=O)Nc1cccc(NC(=O)c2ccc([N+](=O)[O-])cc2Cl)c1
  Biofilm kill mix: 16
COc1cc(C2CC(=O)Nc3cc(C)c(C)cc32)cc(OC)c1OC (centres undefined)
  Biofilm kill mix: 4
Cc1nn(-c2ccc3ccccc3c2)c(=O)c2ccccc12
  Biofilm kill mix: 14

As a short view, some entries already given:
c1ccc2c(c1)ncn2CCn1cnc2ccccc21
  Biofilm kill mix: 4
Cc1nn(-c2ccccc2)c(C)c1/C=N/n1c(-c2ccc(Cl)cc2)n[nH]c1=S
  Biofilm kill mix: 8
Cc1cc(C)cc(NC(=S)N2CCN(Cc3ccccc3)CC2)c1
  Biofilm kill mix: 11

The results go on.
Cc1ccc(C(=O)NC(=S)NCC2CCCO2)cc1[N+](=O)[O-] (centres undefined)
  Biofilm kill mix: 16
Cc1ccc(NC(=O)c2cc3c(=O)oc4ccc(C)cc4c3s2)nc1
  Biofilm kill mix: 15
Clc1nc(Cl)nc(N(c2ccccc2)c2ccccc2)n1
  Biofilm kill mix: 6
O=c1c2ccc([N+](=O)[O-])cc2ncn1CCOc1ccc(Cl)cc1
  Biofilm kill mix: 16
CC1CCN(S(=O)(=O)c2cccc(C(=O)NNC(=O)c3ccco3)c2)CC1
  Biofilm kill mix: 23
CCCN(CC(=O)Nc1ccc(F)c(F)c1F)CC(=O)Nc1c(Cl)cccc1Cl
  Biofilm kill mix: -5
COc1ccc2nc(NC(=O)[C@@H]3CCCN3C(=O)c3cccs3)sc2c1
  Biofilm kill mix: -4
O=C(COc1ccccc1-c1ccccc1)NCCN1C(=O)S/C(=C\c2cccnc2)C1=O
  Biofilm kill mix: 13
O=C(CSc1cccc[n+]1[O-])NCC1CCCCC1
  Biofilm kill mix: 5
COc1ccc(CCNC(=O)C2CC(c3ccccc3F)=NO2)cc1 (centres undefined)
  Biofilm kill mix: 24
CCOC(=O)c1sc(NC(=O)c2cncc(Br)c2)nc1C
  Biofilm kill mix: 20
CCC(C(=O)NC1CCCCC1)n1c(SCc2cccc(F)c2)nc2ccncc21 (centres undefined)
  Biofilm kill mix: 6
N#CC/C(N)=N/NC(=O)CCCNc1ncc(C(F)(F)F)cc1Cl
  Biofilm kill mix: 13
Cc1cc(C(=O)N/N=C/c2c[nH]c3ccccc23)cs1
  Biofilm kill mix: -1
COc1ccc(N(CC(=O)Nc2ccccc2C(=O)NCC(C)C)S(C)(=O)=O)cc1
  Biofilm kill mix: 3

The list goes on, overlapping the part above by four compounds.
CCC(C(=O)NC1CCCCC1)n1c(SCc2cccc(F)c2)nc2ccncc21 (centres undefined)
  Biofilm kill mix: 6
N#CC/C(N)=N/NC(=O)CCCNc1ncc(C(F)(F)F)cc1Cl
  Biofilm kill mix: 13
Cc1cc(C(=O)N/N=C/c2c[nH]c3ccccc23)cs1
  Biofilm kill mix: -1
COc1ccc(N(CC(=O)Nc2ccccc2C(=O)NCC(C)C)S(C)(=O)=O)cc1
  Biofilm kill mix: 3
CCc1sc(-c2ccccc2)nc1C(=O)OC
  Biofilm kill mix: 12
CCC1(CC)Cc2ccccc2-c2nc(NCCCO)[nH]c(=O)c21
  Biofilm kill mix: -2
Cc1onc(-c2c(F)cccc2Cl)c1C(=O)OCC(=O)NC(N)=O
  Biofilm kill mix: 6
CCOC(=O)c1ccc(NC(=O)CN2C(=O)CNC2=O)cc1
  Biofilm kill mix: 14
O=C(Cc1ccc(Br)cc1)Nc1ncc([N+](=O)[O-])s1
  Biofilm kill mix: 27
O=C(COc1ccc2ccccc2c1)N1CCN(C(=O)c2ccco2)CC1
  Biofilm kill mix: 5
CNc1ccccc1C(C)(C)c1cc(-c2cc(C)cc(C)c2)no1
  Biofilm kill mix: 8
CCOc1cc(C(=O)NC(=S)Nc2ccc(Cl)c(C(=O)O)c2)cc(OCC)c1OCC
  Biofilm kill mix: 17
COc1ccc2nc(NCCNC(=S)NCCCN3CCOCC3)c(C#N)cc2c1
  Biofilm kill mix: 3
CCCCCC[n+]1c(-c2ccccc2)csc1Nc1ccccc1
  Biofilm kill mix: -2
Cc1ccc(Cn2cnc3ccccc32)cc1C
  Biofilm kill mix: 4
CC(C)c1ccc(NC(=S)NN2CCOCC2)cc1
  Biofilm kill mix: 11
O=S(=O)(c1ccc(-n2cnnn2)cc1)N1CCC(N2CCCCC2)CC1
  Biofilm kill mix: 11
Cc1cc(C)nc(SCCN(C)C)n1
  Biofilm kill mix: 10
COc1ccc(Cl)cc1NC(=S)N1CCN(C(=O)C2CCCO2)CC1 (centres undefined)
  Biofilm kill mix: 9

Arranged by molar mass (lowest first): part of the list above
CC(C)c1ccc(NC(=S)NN2CCOCC2)cc1
  Biofilm kill mix: 11
CNc1ccccc1C(C)(C)c1cc(-c2cc(C)cc(C)c2)no1
  Biofilm kill mix: 8
Cc1onc(-c2c(F)cccc2Cl)c1C(=O)OCC(=O)NC(N)=O
  Biofilm kill mix: 6
O=S(=O)(c1ccc(-n2cnnn2)cc1)N1CCC(N2CCCCC2)CC1
  Biofilm kill mix: 11
COc1ccc(Cl)cc1NC(=S)N1CCN(C(=O)C2CCCO2)CC1 (centres undefined)
  Biofilm kill mix: 9
COc1ccc2nc(NCCNC(=S)NCCCN3CCOCC3)c(C#N)cc2c1
  Biofilm kill mix: 3
CCOc1cc(C(=O)NC(=S)Nc2ccc(Cl)c(C(=O)O)c2)cc(OCC)c1OCC
  Biofilm kill mix: 17

(list continues)
CCN(C(=O)COC(=O)c1cccn1C)C1CCS(=O)(=O)C1 (centres undefined)
  Biofilm kill mix: 24
CC(C)(C)C(=O)NC(=S)Nc1ccc(C(F)(F)F)cc1
  Biofilm kill mix: 16
CC1C/C(=C/c2ccco2)C(=O)/C(=C/c2ccco2)C1 (centres undefined)
  Biofilm kill mix: 13
Cc1ccc(-c2nc(Nc3cccc(C)c3)sc2CC(=O)O)cc1
  Biofilm kill mix: 11
COC(=O)c1c(-c2ccccc2Cl)noc1-c1cnc(N)nc1C(F)(F)F
  Biofilm kill mix: 20
Cc1ccc(C(=O)Nc2ccc(C(=O)N/N=C/c3c[nH]c4ccccc34)cc2)cc1
  Biofilm kill mix: 15
O=S(=O)(Cc1ccccc1Cl)NCCOc1ccccc1
  Biofilm kill mix: 9
O=C(OCc1cncs1)c1ccccc1
  Biofilm kill mix: 19
O=C1N/C(=N/S(=O)(=O)Cc2ccccc2)S/C1=C/c1ccc2c(c1)OCO2
  Biofilm kill mix: 12
CCc1cc(=O)oc2cc3occ(-c4ccc(OC)c(F)c4)c3cc12
  Biofilm kill mix: 0
COc1ccccc1C(=O)Nc1ccccc1C(=O)N1C(C)CCCC1C (centres undefined)
  Biofilm kill mix: 13
CC(=O)c1cc(-c2ccccc2)n(CCC(=O)NC2CCCC2)c1C
  Biofilm kill mix: 16
CCCCc1ccc(-n2c(Cc3cccs3)n[nH]c2=S)cc1
  Biofilm kill mix: 15
CC(C)=CCC(C)(C)/C=N/NC(N)=O
  Biofilm kill mix: 24
CCn1cc(S(=O)(=O)N2CCN(Cc3ccc(F)cc3)CC2)cn1
  Biofilm kill mix: -3

Clc1ccc2nnnc(-c3ccccc3)c2c1
  Biofilm kill mix: 3
COC(=O)c1ccc(-c2noc(CN3C[C@H]4CC[C@H]3C4)n2)cc1
  Biofilm kill mix: 7
O=C(COC(=O)/C=C/c1ccccc1Cl)NCc1ccccc1
  Biofilm kill mix: 17
N#CCc1nn(-c2ccccc2)c2ncnc(N)c12
  Biofilm kill mix: 3
CN1CCC(=NNC(=O)CN(c2cccc(Br)c2)S(C)(=O)=O)CC1
  Biofilm kill mix: 14
Cc1nc(NC(=O)/C=C/c2ccc(C(C)(C)C)cc2)sc1C(=O)N(C)C
  Biofilm kill mix: 0
CCOCCCNc1ccc(N2C(=O)C3CCCCC3C2=O)cc1[N+](=O)[O-] (centres undefined)
  Biofilm kill mix: 2
CCCCCC(=O)NC(=S)Nc1ccc(NC(=O)c2ccco2)cc1
  Biofilm kill mix: 11
NC(N)=N/N=C/c1ccc(Cl)c([N+](=O)[O-])c1
  Biofilm kill mix: 10
COc1ccc(CC(=O)OCC(=O)Nc2cccc(Cl)c2)cc1
  Biofilm kill mix: 20
Cc1ccccc1Cn1nc(C)c(NC(=O)c2cc(CC(C)C)on2)c1C
  Biofilm kill mix: 12
COc1ccc(N2CC(O)(c3ccc(F)cc3)[N+]3=C2CCCC3)cc1 (centres undefined)
  Biofilm kill mix: 12
Cc1ccc(/C=C2\CCOC2=O)cc1
  Biofilm kill mix: 3
Nc1ccc(S(=O)(=O)Nc2nccc(/C=C/c3ccc(Cl)cc3Cl)n2)cc1
  Biofilm kill mix: 13
Cc1cc(C)n(-c2nnc(SCC(=O)NC3CCCC3)c3ccccc23)n1
  Biofilm kill mix: 4

CS(=O)(=O)c1ccc(Cl)c(NC(=O)CCl)c1
  Biofilm kill mix: 10
COc1ccc(C(=O)Nc2cc(OC)nc(OC)n2)cc1
  Biofilm kill mix: 12
CC(=C/c1ccccc1)/C=N/Nc1nc(N2CCCCC2)nc(N2CCCCC2)n1
  Biofilm kill mix: 8
Cn1c(CSc2nc3ccccc3s2)nnc1SCC(=O)NCc1ccccn1
  Biofilm kill mix: 13
CC(SC(=S)N1CCCC1)C(=O)O (centres undefined)
  Biofilm kill mix: 6
O=C1CCCc2c1cc(C(=O)O)c(=O)n2-c1ccccc1
  Biofilm kill mix: 1
CC(C)N(C)CCOC(=O)c1ccc2c(c1)OCCO2
  Biofilm kill mix: 4
COC(=O)CN=Cc1c(O)n(-c2ccc(Cl)cn2)c(=O)c2ccccc12
  Biofilm kill mix: 9
CC(C)c1ccc(OCC(=O)N(c2ccccn2)C2CCCCC2)cc1
  Biofilm kill mix: 8
CC(C)(C)NC(=O)CSc1nc(-c2ccc(F)cc2)cs1
  Biofilm kill mix: 9
CC(=O)Nc1ccc(/C(C)=N\NC(=O)c2ccc(-c3ccccc3)cc2)cc1
  Biofilm kill mix: 11
CN(C)CCCNC1=CC(=O)OC12CCCCC2
  Biofilm kill mix: 11
O=C1C2C3C=CC(C2C(=O)N1c1cccc(O)c1)C1C2C(=O)N(c4cccc(O)c4)C(=O)C2C31 (centres undefined)
  Biofilm kill mix: 6
CCOc1ccc(/C=C2\SC(=S)N(C(C(=O)O)c3ccccc3)C2=O)cc1OC (centres undefined)
  Biofilm kill mix: 24
COc1cc(C(=O)Nc2c(C)cc(C)cc2C)c([N+](=O)[O-])cc1OC
  Biofilm kill mix: 19

CCOc1ccccc1NC(=O)c1oc2ccccc2c1NC(=O)C1CCCO1 (centres undefined)
  Biofilm kill mix: 1
O=C(c1ccoc1)N1CCC2(CC1)Oc1ccc(F)cc1C(=O)C21CC(c2cccnc2)=NO1 (centres undefined)
  Biofilm kill mix: 13
O=C(CNc1n[nH]c(=O)[nH]c1=O)N/N=C/c1ccccc1
  Biofilm kill mix: 16
CN(c1ccc(OCC(=O)N2CCN(c3ccc(F)cc3)CC2)cc1)S(=O)(=O)c1cccs1
  Biofilm kill mix: 11
Cc1cccc(-c2nnc(SCC(=O)C(C)(C)C)n2C)c1
  Biofilm kill mix: 23
CC1(C)C2CC=C(/C=N/NC(=O)C(N)=O)C1C2 (centres undefined)
  Biofilm kill mix: -12
FC(F)(F)c1cccc(-c2nc(COc3ccc(Cl)cc3Cl)no2)c1
  Biofilm kill mix: 10
COc1ccc(-c2csc(/C(C#N)=C\c3ccc(OC)c([N+](=O)[O-])c3)n2)cc1
  Biofilm kill mix: 7
Cc1ccc(-c2nc3c(c(=O)[nH]c(=O)n3CC(C)C)n2CC(C)C)cc1[N+](=O)[O-]
  Biofilm kill mix: 3
CC(C)(C)NC(=O)NC(=O)COC(=O)CNS(=O)(=O)/C=C/c1ccccc1
  Biofilm kill mix: 37
Cc1cnc(C(=O)Nc2cc(F)ccc2C)cn1
  Biofilm kill mix: 7
O=C(Cc1ccccc1)Nc1ccc2oc(=O)ccc2c1
  Biofilm kill mix: 18
COc1ccc(/C=N/NC(=O)c2ccccc2F)cc1CN1CCN(c2ccc(F)cc2)CC1
  Biofilm kill mix: 14
CS(=O)(=O)c1ccc2nnn(OCC(=O)Nc3ccc(Br)cc3Br)c2c1
  Biofilm kill mix: 9
COc1ccc(/C=N/NC(=S)Nc2ccccc2)cc1COc1ccccc1F
  Biofilm kill mix: 4

Cc1ccc(-c2csc(-c3ccncc3)n2)cc1
  Biofilm kill mix: 19
Cc1ccc(-c2nnc(C)c(N3CCCC3)n2)cc1
  Biofilm kill mix: 8
COCc1[nH]nc2c1C(c1ccc(F)cc1F)C(C#N)=C(N)O2 (centres undefined)
  Biofilm kill mix: 12
Cc1nnsc1-c1c(C(=O)N2CCOCC2)c(C)nn1-c1ccccc1
  Biofilm kill mix: 19
Nc1nonc1-c1nc2ccccc2n1CC(=O)Nc1ccccc1
  Biofilm kill mix: 17
O=C(Oc1ccc(/C=N/O)cc1)c1ccccc1Cl
  Biofilm kill mix: 5
